LT uptake inh = blocks cellular internalization of anthrax lethal toxin | hit rate 0.67% among 70,000 | Potency, µM (titrated, usually from 40 µM), without a hit: top-dose activity change, negative = inhibition, actives largely listed as inhibitors | Cells, anthrax lethal toxin internalization, FRET ratio (460/530) | AID 912; active = well fitted falling ratio curve with the 530 nm signal flat; inconclusive = other ratio curves, or a change in one channel alone; inactive = flat curves in the ratio and both channels; the % refers to the ratio; further: on the % scale 0 is the no-effect control and ±100 the full control effect; nearly all actives have a fitted effect of over 50% in size; tested in ME-180 cells; beta-lactamase reporter
SmPrx2 inh = blocks S. mansoni peroxiredoxin 2 enzymatic activity. AID 448. Potency, µM. S. mansoni Prx2 activity coupled to TGR/GSH (TGR is thioredoxin glutathione reductase), NADPH fluorescence loss, qHTS; some inactives read as strong as hits. hit rate 0.07% among 65,000; active means full or partial inhibition curve with a strong effect at the top dose; inconclusive means weaker partial or single-point curve; inactive means no accepted curve; further: series up to 57 µM; many of its hits are not listed in these tables
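Prx2 activity was followed as the loss of NADPH fluorescence (ex 365/em 450 nm), read every 30 sec for 8 min after H2O2 start. The enzyme mix (50 nM Prx2, 25 nM TGR, GSH, NADPH; pH 7.4 phosphate buffer) was incubated with compound for 15 min at room temperature first.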
* = called active by the depositor; ? = inconclusive; nt = not tested or not shown; [ ] = another dose, or the depositor's remark. Potency means the concentration at half of the fitted maximal effect. These rows are one share of the data, so the mix of outcomes need not match the whole.

molecule	LT uptake inh	SmPrx2 inh
CC1Cc2ccccc2N1C(=O)Cn1c(=O)oc2cc(S(=O)(=O)N3CCCCC3)ccc21 (centres undefined)	?	>57
COc1ccc(NC(=O)COc2ccccc2C#N)c(S(=O)(=O)N2CCCCC2)c1	-4%	?
O=P1(NCCCl)OCCCN1CCCl (centres undefined)	-1%[3.58 µM]	>57
COc1ccccc1CNC(=O)C1CCN(S(=O)(=O)c2cccc3cccnc23)CC1	0%	>57
CS(=O)(=O)c1ccc(Cl)c(NC(=O)C2CC(=O)N(Cc3ccccc3)C2)c1 (centres undefined)	16%	>57
CCCn1c(=O)n(C)c(=O)c2c3oc(=O)c(NC(=O)c4ccc(F)cc4)cc3[nH]c21	-5%	>57
CC(C)CCNC(=O)NC(=O)CSc1nnc(COc2ccccc2Cl)o1	13%	>57
Oc1ccc(Br)cc1-c1nc2cnccn2c1NC1CCCC1	4%	>57
CC1CC(C)CN(CCCNC(=O)COc2cc(=O)n(C)c3ccccc23)C1 (centres undefined)	4%	>57
COC(=O)c1[nH]nc2c1C(=O)N(C1CCCCC1)C2=O	-12%	>57

No new results follow: seven of the compounds above.
molecule	LT uptake inh	SmPrx2 inh
CC1Cc2ccccc2N1C(=O)Cn1c(=O)oc2cc(S(=O)(=O)N3CCCCC3)ccc21 (centres undefined)	?	>57
COc1ccc(NC(=O)COc2ccccc2C#N)c(S(=O)(=O)N2CCCCC2)c1	-4%	?
O=P1(NCCCl)OCCCN1CCCl (centres undefined)	-1%[3.58 µM]	>57
COc1ccccc1CNC(=O)C1CCN(S(=O)(=O)c2cccc3cccnc23)CC1	0%	>57
CS(=O)(=O)c1ccc(Cl)c(NC(=O)C2CC(=O)N(Cc3ccccc3)C2)c1 (centres undefined)	16%	>57
CCCn1c(=O)n(C)c(=O)c2c3oc(=O)c(NC(=O)c4ccc(F)cc4)cc3[nH]c21	-5%	>57
CC(C)CCNC(=O)NC(=O)CSc1nnc(COc2ccccc2Cl)o1	13%	>57

More records follow.
molecule	LT uptake inh	SmPrx2 inh
N#Cc1cccc(-c2cc(NCc3ccccc3)ncn2)c1	4%	>57
Cc1cc(C(=O)Nc2cc(C)n(Cc3ccc(Cl)cc3)n2)no1	-8%	>57
Cn1cnnc1SCC(=O)c1ccco1	-8%	>57
O=C1C[C@@H]2OCC=C3CN4CC[C@]56c7ccccc7N1[C@H]5[C@@H]2[C@H]3C[C@@H]46	-6%	>57
COCCN1C(=O)c2ccccc2C(C(=O)NCC2CCCO2)C1c1c[nH]c2ccccc12 (centres undefined)	3%	>57
COc1ccc(-c2nnn(CC(=O)c3c[nH]c4ccccc34)n2)cc1OC	6%	>57
O=S(=O)(c1cc(Cl)ccc1Br)N1CCOCC1	-1%	>57
c1ccc2c(N3CCNCC3)cccc2c1	-3%	>57
CC1CCCC(NC(=O)Cn2cc3c(n2)CCCCC3)C1C (centres undefined)	-12%	>57
C/C(CCC(=O)OC[C@@H]1O[C@H](C#Cc2ccccc2)C=C[C@@H]1Oc1ccc(C)cc1)=N/O[C@@H](C)c1cc(-c2c(C)cc(C)cc2C)no1	-19%[8 µM]	nt
CC(=O)Nc1ccc(S(=O)(=O)N2CCN(CCCOc3cc(C)ccc3C)CC2)cc1	-4%	>57
O=C(O)C[C@H](NC(=O)CP(=O)(O)O)C(=O)O.[NH-][C@@H]1CCCC[C@@H]1[NH-].[Pt]	-8%[8 µM]	>57
COc1cc2c(cc1OC)CN(C(=O)c1cccs1)CC2	3%	>57
CC/C(=N\O)c1ccc(O)c(OC)c1	-4%	>57
O=C(Nc1ccccc1F)c1ccc(S(=O)(=O)NCC2CCCO2)cc1 (centres undefined)	11%	>57
O=c1c2ccccc2nnn1CSc1nc2cc(Cl)ccc2c(=O)n1Cc1ccco1	-10%	>57
CCCCCCNC(=O)Nc1ccccc1	-8%	>57
NC(=O)c1cc2ccc(O)cc2oc1=Nc1ccccc1	?	>57
O=c1nccc(NCc2ccco2)[nH]1	9%	>57
CCn1cc(Br)c(C(=O)N2CCN(c3ccccc3)CC2)n1	-3%	>57
Cc1ccnc(NS(=O)(=O)c2ccccc2)n1	-3%	>57
Cc1ccc2nsnc2c1S(=O)(=O)Nc1cccc2nsnc12	-1%	>57
O=C(Nc1cc(C(F)(F)F)ccc1F)C1CCC1	-6%	>57
O=C(c1cccc(S(=O)(=O)N2CCCC2)c1)c1nnc(-c2ccncc2)o1	?	>57
CCOC(=O)Cn1c(CN(Cc2ccccc2)Cc2ccccc2)nc2c1c(=O)n(C)c(=O)n2C	-25%	>57
CCCNC(=O)OC[C@@H]1O[C@H](c2ccccc2)C=C[C@@H]1Oc1ccc(OC)cc1	-3%[8 µM]	nt
O=C(c1cc(Cl)ccc1Cl)N1CCOCC1	-5%	nt
CC1(NC[C@@H](O)COc2cccc3[nH]ccc23)CCC(C(C)(C)NC(=O)CBr)CC1 (some centres undefined)	3%	>57
COc1ccc(NC(=O)C2CC(=O)N(c3cc(C)ccc3C)C2)cc1 (centres undefined)	-1%	>57
Cn1c(-c2ccccc2)cnc1SCc1nc2ccccc2c(=O)[nH]1	0%	>57
O=C1CCCN1Cc1ncnn1-c1ccccc1	2%	>57
CCC(=O)N1CCN(c2cc(C)ccc2C)CC1	-15%	>57
CCN1C(=O)[C@H]2[C@H]3[C@H](O)[C@H](O)C/C(=N/OCC[C@H]4C=C[C@H](OC(C)=O)[C@@H](COC(C)=O)O4)[C@@H]3CC[C@@H]2C1=O	-8%[8 µM]	nt
c1cncc(CNc2nc(-c3ccc4c(c3)OCO4)nc3ccccc23)c1	-13%	>57
c1ccc2c(c1)[nH]c1ccccc12	-12%	nt
CCOc1ccc(N(CC(=O)NCC2CCCO2)S(=O)(=O)c2ccc(OC)c(OC)c2)cc1 (centres undefined)	19%	nt
Cc1nc2ccccc2c(=O)n1CC(=O)N1CCOCC1	?	>57
COc1ccc(N2CCN(c3nc(NCCO)nc(N4CCOCC4)n3)CC2)cc1	3%	>57
Cc1cccn2c(=O)c3cc(C#N)c(=N)n(CCN4CCOCC4)c3nc12	14%	>57
O/N=C1/CCCCc2sccc21	-5%	>57
O=C(COc1ccccc1F)Nc1ccc(S(=O)(=O)NCc2ccco2)cc1	-24%	>57
Cc1csc2nc(CNS(=O)(=O)c3cccnc3)cn12	6%	>57
COc1ccc(-n2c(SCC#N)nc3ccccc3c2=O)cc1	-20%	nt
CC1(C)CC(=O)C(C=NCC2CCNCC2)=C(O)C1	-7%	nt
CCOC(=O)CCCc1sc(N)nc1-c1[nH]c(=O)[nH]c1C	-10%	>57
CCCC/C=C/C(NC(=O)c1ccc(C(F)(F)F)cc1)c1ccccc1 (centres undefined)	-30%	>57
Cc1ccc(C(C(=O)NCCc2ccccc2)N(C(=O)c2csnn2)C2CC2)o1 (centres undefined)	-12%	>57
O=C(NCCN1CCN(c2ccccc2)CC1)c1cccn2c(=O)c3ccccc3nc12	4%	>57
COCCCn1c(SCC(=O)N2CCc3ccccc32)nnc1-c1ccoc1C	1%	>57
Nc1nc(CSCc2ccccc2)nc(N2CCOCC2)n1	0%	>57

The listing continues:
molecule	LT uptake inh	SmPrx2 inh
CCOC(=O)c1sc(NC(=O)c2cc(S(=O)(=O)N3CCOCC3)ccc2C)nc1C	-12%	>57
COc1ccc(OC)c(N2C(=O)NC(=O)C3(Cc4cc(C)ccc4N(C)C3)C2=O)c1 (centres undefined)	-16%	>57
CCOc1ccc(C(CC(=O)O)NS(=O)(=O)c2ccc(C)cc2)cc1OC (centres undefined)	15%	>57
CC(C)NC(=O)C1CCN(C(=O)C(C(=O)c2ccccc2)n2cc(Cl)ccc2=O)CC1 (centres undefined)	-10%	>57
CN1CCN(C(=O)C2CCC(CNS(=O)(=O)c3cccc4cccnc34)CC2)CC1 (centres undefined)	?	>57
COC(=O)c1sccc1NC(=O)C1C2C=CC(O2)C1C(=O)O (centres undefined)	9%	>57
C#CCNc1nc(C)nc2c1nnn2Cc1ccccc1F	1%	>57
CCOc1ccc(N(CC(=O)NCc2cccc(OC)c2)S(=O)(=O)c2c(C)noc2C)cc1	1%	>57
COc1ccc(OCC(O)Cn2c(=N)n(CCN3CCOCC3)c3ccccc32)cc1 (centres undefined)	?	>57
Cc1c(NC(=O)Nc2ccccc2Cl)sc(=S)n1C	-5%	nt
CN1CCN(c2ncc3nc(-c4cccc(C#N)c4)c(=O)n(Cc4ccc(F)cc4)c3n2)CC1	?	>57
O=C(c1ccco1)N1CCN(C(c2ccccc2Cl)c2nnnn2CC2CCCO2)CC1 (centres undefined)	?	>57
O=c1c2ccccc2nc2ccc(NCc3ccco3)nn12	?	>57
O=C(Nc1ccccc1)N1CCCC2(CCN(C(=O)c3cnccn3)CC2)C1	-3%	>57
O=C1c2ccccc2C(=O)N1CCc1nc2ccccc2c(=O)n1-c1ccccn1	nt	>57
O=C(O)c1ccc(CS(=O)(=O)c2cccc(C(F)(F)F)c2)o1	-6%	>57
CCN(CC)c1ccccc1	-3%	nt
OCCSCc1ccccc1	0%[8 µM]	>57
CCOC(=O)C1=C(C)N=C2SCCC(=O)N2C1c1sccc1C (centres undefined)	4%	>57
CC(=O)OC[C@@H]1O[C@@H](O/N=C2/C[C@@H](O)[C@@H](O)[C@@H]3[C@@H]4C(=O)N(C(C)(C)C)C(=O)[C@H]4CC[C@H]23)[C@H](OC(C)=O)[C@H](OC(C)=O)[C@@H]1OC(C)=O	5%[1.6 µM]	nt
OCC(CO)(CO)n1cnnn1	12%	>57
NC(=O)NC1CCCc2c1[nH]c1ccc(Cl)cc21 (centres undefined)	-21%	>57
Cc1ccc(-c2nnc(CSc3nnc(COc4ccccc4)n3-c3ccc(C)cc3)o2)cc1	?	>57
CCN1CCN(CC(=O)Nc2ccc(Cl)c(Cl)c2)C(=O)C1=O	-7%	>57
O=C(NCc1cccs1)O[C@H]1C[C@H]2CC[C@@H]1C2	?	>11
CCCc1nc(SC2CCCC2)c2c(=O)n(C)c(=O)n(C)c2n1	?	>57
O=C(CSc1nnc2c(n1)[nH]c1ccc(F)cc12)OCc1ccccc1	-7%	>57
CCCCc1nnc(SCc2ccc(OCC)cc2)n1N	9%	nt
O=C1c2ccccc2C(=O)c2c(Nc3ccc4c5c(cccc35)C(=O)c3ccccc3-4)cccc21	-10%[8 µM]	>57
Cc1cccc(OCC(=O)Nc2ccc(N3CCN(S(C)(=O)=O)CC3)cc2)c1	?	>57
O=[N+]([O-])c1ccc(NCCO)c(OCCO)c1	0%	nt
Nc1nncn1C(=O)c1ccccc1Cl	1%	>57
Cc1noc(C)c1-c1cc(NCc2cccnc2)ncn1	13%	>57
CCN(CC)CC(=O)c1c[nH]c2ccccc12	-4%	>57
CN(CCc1ccc(Cl)c(Cl)c1)CCN1CCCC1	-17%	>57
N#CC[N+]1(Cc2ccccn2)CCCC1	?	>57
CCCCc1ccc(NC(=O)OC)cc1	-5%	nt
COc1ccc(C(=O)NCc2nc3ccccc3[nH]2)cc1OC	3%	>57
O=C(Cn1cc2c(n1)CCCC2)N1CCc2ccccc21	7%	>57
Cn1c(=O)c2c(nc(Sc3nc4ccccc4n3CC(=O)N3CCCCC3)n2C)n(C)c1=O	12%	>57
O=C1c2oc3ccccc3c(=O)c2C(c2cccc(O)c2)N1CCCN1CCOCC1 (centres undefined)	5%	>57
COCC(=O)N(Cc1cc2cc(OC)ccc2[nH]c1=O)c1ccccc1OC	-5%	>57
NC(=O)c1sc2nc3c(c(-c4ccco4)c2c1N)CCC3	4%	>57
C=CCn1c(=O)c(C(=O)Nc2ccccc2C(=O)OCC)c(O)c2ccccc21	-2%	>57
CCN(CC)S(=O)(=O)c1ccc(NC(=O)CSc2nnc(-c3ccc(F)cc3)o2)cc1	-4%	>57
CC1=CC(C)(C)N2C(=O)C3(N=C(N)NC(Nc4ccccc4)=N3)c3cc(C)cc1c32 (centres undefined)	-26%	>57
COc1cc(CNc2ccc(C)c(C)c2)cc(OC)c1OC	-19%	nt
COc1ccc(-c2nnc(SCC(=O)N(Cc3ccccc3)C(C)(C)C)o2)cc1OC	7%	>57
CN(C)C(=O)CSc1nnc(CCN)o1	nt	>57
COc1ccc(CNC(=O)C2CCCN(S(=O)(=O)c3c(C)nn(C)c3C)C2)cc1 (centres undefined)	15%	>57

Further compounds.
molecule	LT uptake inh	SmPrx2 inh
CCOc1cccc(NC(=O)C(Cc2cccs2)c2nn[nH]n2)c1 (centres undefined)	-16%	>57
COc1[nH]c(/N=C/c2ccccc2)c(C#N)c1C#N	-11%	>57
CCCOc1ccc(C2(C(=O)O)CCCC2)cc1	-6%	>57
CC(C)C[C@@H](CC(=O)N[C@@H](CCC(=O)O)CC(=O)O)NC(=O)[C@@H]1CNCC[C@H]1NC(=O)C[C@H](CCCN)NC(=O)C[C@H](CO)NC(=O)[C@@H]1CNCC[C@H]1N	0%	>57

From PubChem BioAssay
